Sa growth inh = S. aureus growth inhibition; relative growth, % (no concentration beside the values); AID 720641; 170,000 compounds, 0.53% hits; S. aureus RN4220 growth, OD600, 20 h, 42 °C; hits give low values;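 active = growth at 42 °C up to 50% and 20 or more points under that at 30 °C, or under 10% at both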;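 note: 300 nL library stock went into each well; scaled to the means of positive and negative controls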
GIV Gai3 FP = inhibitors of GIV GBA-motif binding to rat Galpha-i3; P08753; Galpha-i3/FITC-GIV peptide fluorescence polarization, 90 min; hits give low values; scaled: aluminum fluoride 0%, vehicle 100%; percent of control (FP), % (test concentration not listed); 210,000 compounds, 0.42% hits;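 active = replicate mean at 85% of control or lower, very high polarization wells dropped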;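 note: wells of about 15 µL received 100 nL stock; the first replicate is given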
Target sequence (P08753 whole entry, looked up): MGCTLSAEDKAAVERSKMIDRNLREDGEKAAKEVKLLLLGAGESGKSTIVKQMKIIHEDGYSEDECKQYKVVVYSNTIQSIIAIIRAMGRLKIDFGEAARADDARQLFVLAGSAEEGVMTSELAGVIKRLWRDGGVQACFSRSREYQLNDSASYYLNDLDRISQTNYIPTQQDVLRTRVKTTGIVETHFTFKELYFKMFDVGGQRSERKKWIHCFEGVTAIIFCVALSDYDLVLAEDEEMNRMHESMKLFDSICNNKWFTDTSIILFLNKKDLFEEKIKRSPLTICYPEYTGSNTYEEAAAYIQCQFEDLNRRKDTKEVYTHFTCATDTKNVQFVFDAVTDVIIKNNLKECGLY
HCMV NEC inh = disrupts HCMV UL50-UL53 complex binding; HTRF UL50-UL53 interaction, normalized percent inhibition; inhibition, % (test concentration not listed); 190,000 compounds, 0.15% hits; AID 1918969;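 active = both replicates at 50% or more, plus weaker picks with an unusually low signal ratio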;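 note: stock transfer was 100 nL into about 20 µL; 0% = negative control wells and 100% = wells with untagged competitor protein; inactives centre near -12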
Sa growth inh second temp = also measured in Sa growth inh; calls as there; relative growth, %; measured here: growth at 30 °C;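 optical density after 20 h as mean of two plates; 100% = untreated growth and lower means inhibition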
* = called active by the depositor; x = no result given.

#1 CN(c1cc(-c2ccccc2)nc2nc(-c3cccnc3)nn12)C1CCCCC1
#2 COc1cc(=O)n(-c2ccccc2)nc1C(=O)Nc1ccc(-c2nc3ccc(C)cc3s2)cc1
#3 C(/C=C/c1ccccc1)=Nc1ccccc1
#4 Cc1ccc(Cl)cc1N1CCN(C(CC(=O)O)C(=O)c2ccc(F)cc2)CC1 (stereo unspecified)
#5 COc1ccc(-c2nnc(SCC(=O)Nc3cc(C(C)(C)C)nn3-c3ccccc3)o2)cc1
#6 Cc1ccc2ccc3cc(C(=O)N4CCN(c5ccccc5F)CC4)nc3c2[nH]1
#7 CCc1ccc(NC(=O)c2cc3ccccc3oc2=O)cc1
#8 COC(=O)C1=C(C)NC(C)=C(C(=O)OC)C1C(=O)OCC(=O)c1cc(C)n(C2CC2)c1C
assay / entry | 1 | 2 | 3 | 4 | 5 | 6 | 7 | 8
Sa growth inh | x | x | 125 | 77 | 81 | 96 | 94 | 80
Sa growth inh second temp | x | x | 95 | 89 | 93 | 75 | 99 | 92
GIV Gai3 FP | 106 | 105 | 104 | x | x | 106 | 105 | x
HCMV NEC inh | 3 | 6 | 64 | -28 | -7 | x | x | -17

#9 NC(C(=O)O)C(c1ccc(O)cc1)C(F)F (stereo unspecified)
#10 O=C(CSC1=NS(=O)(=O)c2ccccc21)Nc1ccc(Br)cc1
#11 CCOC(=O)c1nnn(-c2nonc2N)c1CN1CCSCC1
#12 COC(=O)c1cc(NC(=O)c2ccco2)cc(C(=O)OC)c1
#13 COc1ccc(CC(=O)Nc2c(C(=O)N3CCN(c4ccccc4)CC3)oc3ccccc23)cc1OC
#14 CN(C)C(=O)Oc1cccc(C2C3=C(CC(C)(C)CC3=O)OC3=C2C(=O)CC(C)(C)C3)c1
#15 CCc1c(C)nc2cc(-c3cc(OC)cc(OC)c3)nn2c1NCCCN1CCOCC1
#16 O=C(NCCN1CCCCC1)c1cc2n(n1)CCCN(Cc1cccc(F)c1)C2=O
assay / entry | 9 | 10 | 11 | 12 | 13 | 14 | 15 | 16
Sa growth inh | 88 | 70 | 100 | 115 | 121 | x | 89 | x
Sa growth inh second temp | 88 | 91 | 86 | 85 | 89 | x | 81 | x
GIV Gai3 FP | x | 93 | x | x | 106 | 106 | 103 | 99
HCMV NEC inh | -18 | x | 2 | -5 | -10 | -26 | 2 | -11

#17 COc1ccc(OC)c(CNC(=O)CCCn2nc(C)c3c(C)n(-c4ccc(C)cc4)nc3c2=O)c1
#18 CCOC(=O)c1c(C)[nH]c(CCC(=O)NCc2cccc(C)c2)c1C
#19 O=C1CC(c2ccc(S(=O)(=O)NCCOc3ccccc3)cc2)CN1 (stereo unspecified)
#20 O=C(N/N=C/c1ccccc1)Nc1ccccc1
#21 O=S1(=O)CCN=C2C(Cl)=CC(C(F)(F)F)=CN21
#22 O=C(Cc1ccccc1)Nn1cnc2c(cnn2-c2ccccc2)c1=O
#23 CC(C)(C)C(=O)OCc1nc(-c2ccc3c(c2)OCCCO3)cs1
#24 OC(COC(c1ccccc1)c1ccccc1)CN1CCCCC1 (stereo unspecified)
assay / entry | 17 | 18 | 19 | 20 | 21 | 22 | 23 | 24
Sa growth inh | 123 | 97 | 97 | 84 | 99 | 107 | 111 | 119
Sa growth inh second temp | 86 | 93 | 89 | 86 | 90 | 91 | 98 | 108
GIV Gai3 FP | 101 | 109 | 103 | 103 | x | 100 | 100 | 105
HCMV NEC inh | x | x | 3 | -34 | -5 | -7 | -1 | -5

#25 COc1ccc(Br)cc1Cn1nnc(C(=O)Nc2cccc(SC)c2)c1N
#26 Cc1nc(CSc2ccc(Cl)cc2)cs1
#27 Cc1nn(-c2ccc(Cl)cc2)c2sc(C(=O)N3CCCCC3)cc12
#28 CCOC(=O)Cn1c(=O)sc2ccccc21
#29 Cc1ccc2c(c1)c(=O)c1ccccc1n2CC(=O)Nc1ccc(Cl)c(Cl)c1
#30 CCCCN(CC)CCNC(=O)C1CCN(c2nnc(C)c3c(C)n(-c4ccc(C)cc4)nc23)CC1
#31 CCCOc1ccc(C(=O)Nc2ccc(Cl)c(-c3nc4ncccc4o3)c2)cc1
#32 CCCN1CCN(C(=O)CN(c2cc(C)cc(C)c2)S(=O)(=O)c2c(C)nn(C)c2C)CC1
assay / entry | 25 | 26 | 27 | 28 | 29 | 30 | 31 | 32
Sa growth inh | 109 | 102 | 100 | 112 | x | 100 | 114 | x
Sa growth inh second temp | 74 | 101 | 94 | 84 | x | 90 | 88 | x
GIV Gai3 FP | 106 | 98 | x | 101 | 109 | 125 | 97 | 94
HCMV NEC inh | -14 | 0 | 9 | -4 | -14 | x | -14 | -12

#33 Cc1ccc(C(=O)Nc2ccc(SCc3cc(=O)n4c(ncn4C(C)C)n3)cc2)cc1
#34 Cc1ccc(C(=O)NC2CCCc3ccccc32)cc1-n1nnc2cccnc21 (stereo unspecified)
#35 CCS(=O)(=O)CC(C)C
#36 Clc1ccc(COc2cccc3cccnc23)cc1
#37 O=C(N/N=C1/CCSc2ccc(F)cc21)C1CC1
#38 O=C(O)/C(=C/c1c(C(=O)O)[nH]c2cc(Cl)cc(Cl)c12)c1ccccc1
#39 O=C(c1ccc(Cl)cc1)N1c2ccccc2OC1c1ccc2c(c1)OCO2 (stereo unspecified)
#40 CC(Oc1ccccc1)C(=O)Nc1nnc(S(=O)(=O)N2CCCCCC2)s1 (stereo unspecified)
assay / entry | 33 | 34 | 35 | 36 | 37 | 38 | 39 | 40
Sa growth inh | x | x | 86 | 86 | 88 | x | 99 | 77
Sa growth inh second temp | x | x | 79 | 91 | 96 | x | 84 | 64
GIV Gai3 FP | 100 | 112 | 103 | 109 | x | 91 | 117 | 100
HCMV NEC inh | -32 | -25 | 1 | -17 | -22 | -4 | -25 | 1

#41 O=C(c1ccc(C(=O)N2CCOCC2)s1)N1CCOCC1
#42 CCNC(=O)c1cccc(OC(C)C)c1
#43 NC(=O)CN(CC(N)=O)S(=O)(=O)c1ccccc1
#44 COC(CN(C)S(=O)(=O)c1ccc(Br)cc1)OC
#45 COc1ccc(C(=O)c2c(N)c(C(=O)Nc3ccccc3Cl)c3ccccn23)cc1
#46 CCOC(=O)CSc1n[nH]c2nc3sc4c(c3c(=O)n12)CC(C)(C)OC4
#47 CN(C1CCCCC1)S(=O)(=O)c1cn(C)c(=O)n(C)c1=O
#48 C1=Cc2ccccc2N2CC(c3ccc4ccccc4c3)N=C12 (stereo unspecified)
assay / entry | 41 | 42 | 43 | 44 | 45 | 46 | 47 | 48
Sa growth inh | 86 | 97 | 120 | 95 | 97 | 99 | 95 | 115
Sa growth inh second temp | 94 | 95 | 111 | 78 | 98 | 93 | 87 | 90
GIV Gai3 FP | x | 98 | 103 | 95 | 98 | 97 | x | 104
HCMV NEC inh | 8 | -44 | 4 | -31 | 3 | -8 | -10 | -1

Reformatted: 19 of the compounds above.
No. | mol | Sa growth inh | Sa growth inh second temp | GIV Gai3 FP | HCMV NEC inh
27 | Cc1nn(-c2ccc(Cl)cc2)c2sc(C(=O)N3CCCCC3)cc12 | 100 | 94 | x | 9
28 | CCOC(=O)Cn1c(=O)sc2ccccc21 | 112 | 84 | 101 | -4
29 | Cc1ccc2c(c1)c(=O)c1ccccc1n2CC(=O)Nc1ccc(Cl)c(Cl)c1 | x | x | 109 | -14
30 | CCCCN(CC)CCNC(=O)C1CCN(c2nnc(C)c3c(C)n(-c4ccc(C)cc4)nc23)CC1 | 100 | 90 | 125 | x
31 | CCCOc1ccc(C(=O)Nc2ccc(Cl)c(-c3nc4ncccc4o3)c2)cc1 | 114 | 88 | 97 | -14
32 | CCCN1CCN(C(=O)CN(c2cc(C)cc(C)c2)S(=O)(=O)c2c(C)nn(C)c2C)CC1 | x | x | 94 | -12
33 | Cc1ccc(C(=O)Nc2ccc(SCc3cc(=O)n4c(ncn4C(C)C)n3)cc2)cc1 | x | x | 100 | -32
34 | Cc1ccc(C(=O)NC2CCCc3ccccc32)cc1-n1nnc2cccnc21 (stereo unspecified) | x | x | 112 | -25
35 | CCS(=O)(=O)CC(C)C | 86 | 79 | 103 | 1
36 | Clc1ccc(COc2cccc3cccnc23)cc1 | 86 | 91 | 109 | -17
37 | O=C(N/N=C1/CCSc2ccc(F)cc21)C1CC1 | 88 | 96 | x | -22
38 | O=C(O)/C(=C/c1c(C(=O)O)[nH]c2cc(Cl)cc(Cl)c12)c1ccccc1 | x | x | 91 | -4
39 | O=C(c1ccc(Cl)cc1)N1c2ccccc2OC1c1ccc2c(c1)OCO2 (stereo unspecified) | 99 | 84 | 117 | -25
40 | CC(Oc1ccccc1)C(=O)Nc1nnc(S(=O)(=O)N2CCCCCC2)s1 (stereo unspecified) | 77 | 64 | 100 | 1
41 | O=C(c1ccc(C(=O)N2CCOCC2)s1)N1CCOCC1 | 86 | 94 | x | 8
42 | CCNC(=O)c1cccc(OC(C)C)c1 | 97 | 95 | 98 | -44
43 | NC(=O)CN(CC(N)=O)S(=O)(=O)c1ccccc1 | 120 | 111 | 103 | 4
44 | COC(CN(C)S(=O)(=O)c1ccc(Br)cc1)OC | 95 | 78 | 95 | -31
45 | COc1ccc(C(=O)c2c(N)c(C(=O)Nc3ccccc3Cl)c3ccccn23)cc1 | 97 | 98 | 98 | 3

(list continues)
#49 O=C(Nc1ccc2oc(-c3cccnc3)nc2c1)c1ccc(-c2ccc(OC(F)(F)F)cc2)o1
#50 COc1ccc(C2=NN3C(C2)c2cc(Br)ccc2OC3c2ccc(C(C)(C)C)cc2)cc1 (stereo unspecified)
#51 Cc1cccc(CSc2cn(CC(=O)N3CCCCC3)c3ccccc23)c1
#52 CC1CN(S(=O)(=O)c2cccc(C(=O)OCC(N)=O)c2)CC(C)O1 (stereo unspecified)
#53 CC1(C)Cc2ccccc2/C(=C(/C#N)c2ccccc2)N1
#54 CCCCS(=O)CSc1nc(-c2ccc(OC)cc2)cc(-c2ccccc2)c1C#N (stereo unspecified)
#55 N#C/C(=C\c1cc(Br)c(O)c(Br)c1)C(N)=O
#56 COC(=O)c1ccc(NC(=S)N(CC(C)C)CC(C)C)cc1
assay / entry | 49 | 50 | 51 | 52 | 53 | 54 | 55 | 56
Sa growth inh | 97 | x | 92 | 105 | 98 | 94 | 76 | 69
Sa growth inh second temp | 90 | x | 73 | 89 | 93 | 87 | 74 | 65
GIV Gai3 FP | 109 | 105 | 113 | x | 100 | 99 | x | x
HCMV NEC inh | -17 | -5 | x | -5 | 4 | x | -65 | -2

#57 O=c1c2ccc(Cl)cc2oc2cc(O)cc(O)c12
#58 CC1(C)CC(=O)C2=C(C1)Nc1ccccc1N(C(=O)C1CC1)C2c1ccc(F)cc1 (stereo unspecified)
#59 Cc1ccc(C(=O)CSc2[nH]c(=O)ncc2C)cc1
#60 Cc1nc2scc(-c3ccccc3)c2c(=O)n1/N=C/c1ccco1
#61 CCC(Sc1nnc(N)s1)C(=O)Nc1ccc(S(N)(=O)=O)cc1 (stereo unspecified)
#62 Cc1cc(=O)n(CC(=O)N2CCCCC2)c2c1c(C)nn2C
#63 O=C(O)CCCCn1c(=S)[nH]c2ccsc2c1=O
#64 Cc1ccc(S(=O)(=O)N(C)Cc2nc3cc(C(=O)N(C)C)ccc3n2C)cc1Cl
assay / entry | 57 | 58 | 59 | 60 | 61 | 62 | 63 | 64
Sa growth inh | x | x | 85 | 82 | 97 | 87 | 97 | x
Sa growth inh second temp | x | x | 79 | 100 | 107 | 86 | 85 | x
GIV Gai3 FP | 108 | 87 | 107 | x | 103 | 103 | 89 | 97
HCMV NEC inh | -19 | -2 | -57 | -11 | 10 | x | -22 | -5

#65 Cc1ccc(Cl)cc1NC(=O)/C(C#N)=C\c1cn(Cc2ccc(F)cc2)c2ccccc12
#66 COc1ccc(OC)c(C(O)c2coc3ccc(O)c(CN(C)C)c23)c1 (stereo unspecified)
#67 Cc1nn(-c2ccccc2)c(Cl)c1C(=O)NCc1ccco1
#68 COc1cccc(-c2nc3ccccc3c(=O)n2NC(=O)COc2ccc(Cl)cc2Cl)c1
#69 O=C(NCc1cccnc1)C1c2ccccc2C(=O)N1C1CCCC1 (stereo unspecified)
#70 Cc1nccn1-c1ccc(C(F)(F)F)cc1N
#71 Cc1nn(S(C)(=O)=O)c(C)c1S(=O)(=O)N1CCCC(C)C1 (stereo unspecified)
#72 NC(=O)/C=C\c1ccccc1Oc1ccccc1
assay / entry | 65 | 66 | 67 | 68 | 69 | 70 | 71 | 72
Sa growth inh | 110 | 106 | 107 | x | 113 | 108 | x | x
Sa growth inh second temp | 89 | 101 | 81 | x | 90 | 99 | x | x
GIV Gai3 FP | 109 | 106 | x | 105 | 105 | x | 107 | 102
HCMV NEC inh | -54 | 1 | -40 | -19 | x | 8 | -20 | -29

#73 NC(=S)Nc1ccc2c(c1)OCCO2
#74 CCCC(=O)Nc1ccc2[nH]c(=O)[nH]c2c1
#75 Cc1cc(C)n(NC(=S)NCc2cccs2)c(=O)c1C#N
#76 Cc1ccc(NC2=Nc3ccccc3SC2)cc1
#77 O=C1CCCc2c1[nH]c1ccccc21
#78 Cc1noc(C)c1C(=O)OCC(=O)Nc1ccc(SC(F)F)cc1
#79 Cc1ccc(S(=O)(=O)N2CCCc3cc(NC(=O)c4ccccc4Cl)ccc32)cc1
assay / entry | 73 | 74 | 75 | 76 | 77 | 78 | 79
Sa growth inh | 78 | 107 | 114 | 98 | 110 | 105 | 125
Sa growth inh second temp | 91 | 91 | 90 | 91 | 64 | 94 | 104
GIV Gai3 FP | x | x | 101 | x | 108 | x | 102
HCMV NEC inh | -16 | -2 | -11 | -6 | -15 | -18 | x

High-throughput results (PubChem BioAssay)
